# Bioassay records from PubChem BioAssay.
# GLA inh pH 4.5 – qHTS Assay for Inhibitors of Human alpha-Galactosidase at pH 4.5 | Alpha-galactosidase A (Homo sapiens), P06280 | purified enzyme, 4-MU-alpha-Gal fluorescence, pH 4.5 | activity change, negative = inhibition, % at 105 µM | 230,000 tested, under 10 active | AID 1467, 2008; inconclusive = small, poorly fitted or top-dose-only inhibition, or a rising curve; inactive = flat fitted curve, though single readings scatter; no compound was filed as active;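 further: 0% = full activity with enzyme and -100% = basal without enzyme; dose as in the result columns while the protocol names 77 µM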
# Target sequence (P06280 whole entry, looked up): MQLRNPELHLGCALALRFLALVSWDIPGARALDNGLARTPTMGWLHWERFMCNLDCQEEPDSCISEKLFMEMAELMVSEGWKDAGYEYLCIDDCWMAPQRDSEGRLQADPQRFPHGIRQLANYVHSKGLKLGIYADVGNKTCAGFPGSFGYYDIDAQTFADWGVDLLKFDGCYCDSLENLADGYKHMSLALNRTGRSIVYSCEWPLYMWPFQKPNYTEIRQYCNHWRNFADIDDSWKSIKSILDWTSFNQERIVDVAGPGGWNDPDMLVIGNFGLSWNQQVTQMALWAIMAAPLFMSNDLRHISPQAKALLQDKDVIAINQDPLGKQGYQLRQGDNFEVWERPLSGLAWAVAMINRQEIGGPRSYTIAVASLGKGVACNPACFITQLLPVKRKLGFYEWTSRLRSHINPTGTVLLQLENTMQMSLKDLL
# miR-21 reporter – qHTS Assay for Modulators of miRNAs and/orActivators of miR-21; 340,000 tested, under 10 active; AID 2288, 2010; Potency, µM (highest dose often 38.3 µM), for inactives: at the highest dose reporter change, positive = more light; HeLa miR-21 FLuc reporter, luciferase, 48 h; active = well fitted rising curve with a large enough effect; inconclusive = small, poorly fitted or top-dose-only effect; inactive = no such curve, though single readings can be large or run the other way;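 further: % of control where 0% means no effect; miR-21 action dims this reporter so a rising signal means less miR-21 action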
#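 HeLa cells stably expressing CMV-driven firefly luciferase with a downstream miR-21 binding sequence, endogenously expressing miR-21, were treated with titrations (up to about 40uM final) for 48 hours at 37 degree Celsius. Luciferase luminescence was read after lysis.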
# Rango dissoc inh – qHTS Assay for Inhibitors of RanGTP induced Rango (Ran-regulated importin-beta cargo) - Importin beta complex dissociation. Snurportin-1 (Homo sapiens) + GTP-binding nuclear protein Ran (Homo sapiens) + Importin …. Biochemical FRET Rango-importin beta, RanGTP-induced dissociation. Potency, µM (top dose mostly 46.1 µM), inactives show at the top dose activity change, negative = inhibition. hit rate 0.071% among 340,000. AID 540253, 2011; active means falling FRET ratio curve, often poorly fitted, with flat reads before Ran was added; inconclusive means other falling curves, or compound fluorescence or quenching; inactive means flat or rising ratio curve;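 further: potency means the concentration at half of the fitted maximal effect; % of control where 0% means no effect; nearly all actives have a fitted effect of over 45% in size; -100% = wells without RanGTP and RCC1; the record marks most hits as doubtful in a second field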
#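 Compounds sat 5 min at room temperature with 0.1 uM Rango biosensor plus 0.25 uM importin beta, then FRET pre-read. RanGTP-RCC1 (0.6 uM Ran, 2mM GTP, 0.2 uM RCC1) added for 45 min, and the CFP/YFP post-read measured blocked complex dissociation.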
# Rango-impB inh – qHTS Assay for Inhibitors of Rango (Ran-regulated importin-beta cargo) - Importin beta complex formation; Rango CFP/YFP FRET sensor + importin beta, 45 min; Potency, µM (highest dose often 92.2 µM), without a hit: top-dose inhibition of complex formation; hit rate 0.031% among 340,000; active = rising FRET ratio curve, often small or poorly fitted; inconclusive = mostly compound fluorescence or quenching in the first reads; inactive = flat curves in all reads;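 further: potency means the concentration at half of the fitted maximal effect; 0% = DMSO wells and 100% = buffer wells lacking importin beta; nearly all actives have a fitted effect of over 15% in size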
#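 FRET biosensor (snurportin 1 IBB flanked by EYFP and cerulean), 50 nM, with compound 5 min, then 0.125 microM importin beta in PBS, 1 mM DTT, 0.02% Tween-20, 0.1% BSA. CFP/YFP ratio read after 45 min at room temperature; pre-read flags interference.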
# Active calls of the source: *; u = inconclusive; x = no result given. These rows are one share of the data, so the mix of outcomes need not match the whole.
SMILES,GLA inh pH 4.5,miR-21 reporter,Rango dissoc inh,Rango-impB inh
Cc1ccc(C(C)C)cc1C(=O)CC1(O)C(=O)N(C)c2ccccc21 (stereo not given),4,-9%,3%,-0.8%
O=C(O)c1cccc(-c2ccc(/C=N/n3cnnc3)o2)c1,x,-12%,0%,0.9%
CCCc1cc(C(=O)Nc2cc(C)ccc2O)no1,x,-91%,25%,-3.4%
Cc1ccccc1-c1nnc(SCC(=O)NC2CCCC2)n1C,x,x,0%,-0.4%
CCn1c(=N)c(S(=O)(=O)c2ccc(F)cc2)cc2c(=O)n3ccccc3nc21,4,-6%,u,u
COc1ccc(N(CN2C(=O)C3CC=CCC3C2=O)C(=O)c2ccco2)cc1 (stereo not given),7,-7%,0%,0.0%
COc1cc(OC)c2ccc(=O)oc2c1C(CCN1CCN(c2ccccc2)CC1)c1ccc2c(c1)OCO2 (stereo not given),-4,7%,-10%,-0.6%
Cc1ccc(NC(=O)Cn2cc(C(F)(F)F)cc(Cl)c2=O)cc1S(=O)(=O)N1CCCCC1,x,x,5%,-2.4%
Cc1cccc(N(CC(=O)NCc2ccc3c(c2)OCO3)C(=O)CCC(=O)Nc2ccccn2)c1,2,0%,-1%,1.4%
O=C(CN1CCN(Cc2ccccc2)C1=O)NCCCN1CCOCC1,1,-3%,3%,2.8%
CCc1ccc(C(=O)COC(=O)CNC(=O)c2ccc(N3C(=O)c4ccccc4C3=O)cc2)cc1,3,0%,-17%,0.0%
CCOc1cc(N2CCCC2)ccc1[N+](=O)[O-],-4,-1%,-4%,-1.0%
COc1ccc(C2c3ccc(O)cc3Oc3ncn(CCN4CCOCC4)c(=N)c32)cc1 (stereo not given),-2,-11%,u,u
COc1ccc(C2NC(=O)NC(C)=C2C(=O)Nc2cccc(C)c2C)cc1 (stereo not given),-13,-4%,2%,7.5%
Cc1ccc(N=Nc2ccc3ccccc3c2O)cc1,x,-51%,5%,-1.6%
CCc1ccccc1-n1nnnc1SCC(=O)Nc1cc(C)on1,x,2%,-6%,2.6%
Clc1cccc(Cl)c1COc1ccncc1,2,-1%,1%,4.8%
Cc1cccc(CCNS(=O)(=O)c2ccc3c(c2)NC(=O)CS3)c1,x,0%,11%,-0.6%
O=S1c2ccccc2Sc2ccccc21,x,x,-1%,1.9%
COCCN(CCOC)C(=O)COC(=O)c1cc([N+](=O)[O-])ccc1Cl,-2,1%,3%,-0.4%
Cc1cccc(Nc2nnc(-c3ccc(C(=O)N4C[C@H]5C[C@H](C4)c4cccc(=O)n4C5)cc3)c3ccccc23)c1,2,-6%,4%,-5.4%
COc1ccc(N(C(=O)c2snc(C(N)=O)c2N)C(C(=O)NC2CCCCC2)c2ccc(F)cc2)c(OC)c1 (stereo not given),x,0%,1%,-3.2%
COc1ccc(CNC(=O)c2ccc(S(=O)(=O)N3CCCC3)cc2)cc1OC,-8,9%,13%,-3.8%
CC1CC(C)CN(C(=O)COC(=O)CCc2nc3ccccc3c(=O)[nH]2)C1 (stereo not given),1,5%,6%,0.3%
Cc1ccc(CNC(=O)CCC2CCCN(Cc3cccc4c3OCO4)C2)o1 (stereo not given),-4,2%,2%,-0.5%

# (more compounds)
SMILES,GLA inh pH 4.5,miR-21 reporter,Rango dissoc inh,Rango-impB inh
CC(Sc1n[nH]c(-c2cccs2)n1)C(=O)Nc1ccccc1F (stereo not given),x,x,23%,-1.2%
CC1CCN(c2oc(Cc3cccc4ccccc34)nc2C#N)CC1,-14,-9%,-13%,0.0%
C[C@@H]1CN([C@@H](C)CO)C(=O)c2cc(N(C)C)ccc2O[C@@H]1CN(C)Cc1ccncc1,x,x,17%,0.2%
COc1ccccc1Cn1nnc2c(=O)[nH]c(C3CCN(C(=O)c4ccc(F)cc4)CC3)nc21,7,-6%,14%,8.0%
NNC(=O)c1ccc(S(=O)(=O)N2CCc3ccccc32)cc1,x,2%,-2%,-0.2%
Cc1cc(OCC(=O)NC2CC2)c2c(C)c(C)c(=O)oc2c1,x,9%,7%,u
N#C/C(=C(/O)COc1ccccc1)c1nc2ccccc2s1,4,6%,12%,0.2%
OC(CNCc1ccco1)Cn1c2ccc(Br)cc2c2cc(Br)ccc21 (stereo not given),-1,-4%,-5%,-7.8%
Cc1cccc(-n2c(C)n[nH]c2=S)c1,10,-2%,-17%,u
O=C(CSc1ncn[nH]1)NCCCc1ccccc1,2,-3%,14%,0.9%
COc1cc2c(C(=O)NC3CCCCCC3)cn(C)c(=O)c2cc1OC,-17,-3%,1%,-0.4%
CC1Cc2ccccc2N1Cc1nc2scc(-c3cccs3)c2c(=O)[nH]1 (stereo not given),-4,-10%,-3%,-0.9%
COc1ccc(C2=NO[C@@H]3C(=O)N(Cc4ccccc4)C(=O)[C@H]23)c(OC)c1,-9,1%,10%,0.8%
Cc1nc2ncnn2c(N2CCCC(C(=O)Nc3ccccc3Br)C2)c1C (stereo not given),4,12%,4%,-4.6%
C[C@H]1COC(=O)[C@H](Cc2ccc(F)cc2)CC/C=C/C[C@@H](CC(=O)N(CCO)Cc2ccccc2)C(=O)N1,x,x,-9%,-3.3%
Clc1ccc2nc(CSc3nnc4ccccn34)cn2c1,2,-11%,-7%,-3.2%
Cc1ccc(N2CC(C(=O)NCCN3CCOCC3)CC2=O)cc1C (stereo not given),x,0%,13%,-1.7%
Cc1ccccc1C(C(=O)NC1CCCCC1)N(C(=O)c1ccccn1)c1cccnc1 (stereo not given),6,-2%,u,3.8%
CC(C)(C)c1ccc(NS(=O)(=O)c2ccc(N)cc2)cc1,-12,-21%,3%,1.0%
CCOc1ccccc1C(=O)Nc1nnc(SCC(=O)Nc2cc(C)on2)s1,-2,6%,4%,1.0%
Cc1ccc(C(=O)N=c2sccn2C)cc1S(=O)(=O)N1CCOCC1,x,x,10%,2.3%
Cc1nnsc1C(=O)NC1CCCc2c1cnn2-c1ccc(F)cc1F (stereo not given),x,17%,u,u
CC(CNC(=O)COC(=O)c1ccco1)c1ccccc1 (stereo not given),x,x,2%,-3.2%
COc1ccc(N2CCN(C(c3cccs3)C(C)NS(C)(=O)=O)CC2)cc1 (stereo not given),12,3%,-12%,-3.8%
COC(=O)CN(c1nc(C)cc(OC)n1)S(=O)(=O)c1ccc(C)cc1,2,-6%,-14%,-3.8%

# Next part
SMILES,GLA inh pH 4.5,miR-21 reporter,Rango dissoc inh,Rango-impB inh
O=[N+]([O-])c1cc(C(F)(F)F)ccc1NCCc1c[nH]c2ccc(O)cc12,-17,-15%,-8%,8.5%
COc1ccc(CN2CCN(S(=O)(=O)c3ccccc3)CC2)cc1Br,-16,-3%,-7%,-1.8%
CCN(CC(=O)Nc1c(F)cccc1F)C(=O)CCc1nc2ccccc2c(=O)[nH]1,x,x,-5%,u
Cc1ccc(C(=O)c2c3ccc(C(F)(F)F)cc3[n+]([O-])n2CCCN)cc1,x,x,27%,3.5%
Nc1cc(=O)[nH]c(SCc2nc3ccccc3n2Cc2ccccc2)n1,0,0%,-2%,-0.5%
Cc1nc2ncnn2c(C)c1CCC(=O)N1CCN(c2ccccn2)CC1,-3,-6%,36%,-0.2%
Cc1nn(CC#N)c(=O)n1-c1ccc(F)cc1,-2,-1%,25%,2.2%
COC(=O)/C=C1/SC(=NC(=O)c2ccc(F)cc2)NC1=O,u,-5%,2%,2.6%
COc1ccc(S(=O)(=O)N2CCCCCC2)cc1C(=O)OCC(=O)NC1CCS(=O)(=O)C1 (stereo not given),x,x,15%,-1.5%
c1ccc(-c2nnc(SCc3nnc(-c4cccs4)o3)o2)cc1,7,-13%,4%,0.3%
CCc1ccc(OCC(=O)Nc2ccc(-c3cc4ccccc4oc3=O)c(OC)c2)cc1,3,-20%,3%,2.3%
Cc1ccc(OCC(=O)Nc2cccc(S(=O)(=O)N3CCOCC3)c2)c([N+](=O)[O-])n1,6,-2%,-6%,-4.1%
CC(=O)Nc1ccc(S(=O)(=O)NCc2cn3c(C)csc3n2)cc1,-11,2%,-3%,0.1%
Cc1cc(C)cc(NC(=O)C2CCCN(S(=O)(=O)c3ccc4[nH]c(=O)ccc4c3)C2)c1 (stereo not given),x,-5%,16%,-2.3%
CC(C)CN(C(=O)COC(=O)c1ccc(Br)o1)c1c(N)n(Cc2ccccc2)c(=O)[nH]c1=O,x,x,3%,0.5%
COc1ccc(C(=O)NNC(=O)c2cccc(F)c2)cc1,8,-48%,0%,3.1%
COc1ccc(N2CCN(C(=O)CNC(=O)c3nn(-c4ccc(OC)cc4)c(=O)c4ccccc34)CC2)cc1,x,14%,5%,9.6%
O=[N+]([O-])c1ccc(CN2CCN(c3nc4ccccc4s3)CC2)cc1,x,-16%,-19%,0.4%
OCCC1CN(Cc2cccn2-c2nccs2)CCN1Cc1ccccc1 (stereo not given),-7,-2%,-3%,0.3%
O=C(NCc1ccccc1F)C1CCN(C(=O)NCc2ccccc2)CC1,6,0%,4%,-1.2%
O=C(c1ccc(OC(F)(F)F)cc1)c1ncc[nH]1,x,-52%,10%,0.0%
Cc1ccc([C@@H]2CC=C(C(=O)O)[C@H](c3ccc(Br)cc3)N2S(=O)(=O)c2ccc(C)cc2)cc1,x,x,0%,0.1%
COc1ccc(NS(=O)(=O)c2ccc(SC)cc2)c(OC)c1,2,8%,9%,2.9%
COc1cccc2[nH]c3c(N4CCc5ccccc5C4)ncnc3c12,-1,1%,6%,0.7%
COc1ccc(C(=O)NNC(=O)c2cc(C)[nH]n2)cc1,-4,1%,7%,-0.2%

# Some of these compounds in order of SMILES length, smallest number first.
SMILES,GLA inh pH 4.5,miR-21 reporter,Rango dissoc inh,Rango-impB inh
O=C(c1ccc(OC(F)(F)F)cc1)c1ncc[nH]1,x,-52%,10%,0.0%
COc1ccc(C(=O)NNC(=O)c2cccc(F)c2)cc1,8,-48%,0%,3.1%
COC(=O)/C=C1/SC(=NC(=O)c2ccc(F)cc2)NC1=O,u,-5%,2%,2.6%
Cc1ccc(C(=O)c2c3ccc(C(F)(F)F)cc3[n+]([O-])n2CCCN)cc1,x,x,27%,3.5%
Cc1ccc(OCC(=O)Nc2cccc(S(=O)(=O)N3CCOCC3)c2)c([N+](=O)[O-])n1,6,-2%,-6%,-4.1%

# An excerpt of these results, bar-delimited:
canonical_smiles | GLA inh pH 4.5 | miR-21 reporter | Rango dissoc inh | Rango-impB inh
Cc1nc2ncnn2c(C)c1CCC(=O)N1CCN(c2ccccn2)CC1 | -3 | -6% | 36% | -0.2%
Cc1nn(CC#N)c(=O)n1-c1ccc(F)cc1 | -2 | -1% | 25% | 2.2%
COC(=O)/C=C1/SC(=NC(=O)c2ccc(F)cc2)NC1=O | u | -5% | 2% | 2.6%

# Other records follow.
SMILES,GLA inh pH 4.5,miR-21 reporter,Rango dissoc inh,Rango-impB inh
S=C(NCCc1ccccc1)Nc1ccc(Cl)cc1Cl,-7,-9%,0%,-3.7%
O=C(NC(Cc1ccccc1)C(=O)O)/C(=C/c1ccc([N+](=O)[O-])cc1)NC(=O)c1ccccc1Br (stereo not given),-3,1%,7%,0.4%
CCOC(=O)c1cc2c(ccc3ccccc32)oc1=O,u,-18%,u,u
COc1cc(OC)c(NC(=O)c2ccoc2C)cc1Cl,1,-2%,-3%,3.4%
COc1cc2nc(CSc3nc(-c4ccc(F)cc4)cs3)[nH]c(=O)c2cc1OC,5,-1%,-13%,u
COc1ccccc1CNC(=O)CSc1ccc(-c2cccc([N+](=O)[O-])c2)nn1,-7,11%,4%,-4.2%
CCOC(=O)N1CCN(C(=O)CSc2nnc(Cc3cccn3C)n2CCc2ccccc2)CC1,-3,8%,8%,1.8%
Cc1snc(SCC(=O)c2ccc(F)cc2)c1C#N,2,-64%,u,u
O=C(Nc1c(F)cccc1F)C1CCN(C(=O)c2cccs2)CC1,x,-1%,-5%,3.6%
Cn1cccc1/C=N/NC(=O)c1sc2cc(Cl)ccc2c1Cl,1,-12%,x,x
CCC(=O)N(c1nnc(SCC(=O)c2ccc[nH]2)s1)C1CC1,x,x,-18%,0.3%
